LANA-H2A inh: blocks KSHV LANA binding to histone H2A/H2B. cell-free LANA-H2A/H2B peptide, fluorescence polarization. actives 0.6% (n = 320,000). inhibition, % (test concentration not listed). Q9QR71; in the data active = inhibition mostly above about 10%, no sharp cut-off; inactive = mostly below about 6.7%;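 also: stock transfer was 7.5 nL into about 10 µL; 0% = median of vehicle wells and 100% = median of positive control wells; one replicate is shown; the record names a cut of 25% in any replicate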
UCH37 inh: human UCH37 deubiquitinating enzyme inhibition | inhibition, % (no concentration beside the values) | actives 0.33% (n = 330,000) | Q9Y5K5 | purified proteasome/UCH37, Ub-AMC cleavage fluorescence;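 active = mean of two replicates above 20%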;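 also: 0% = compound-free wells with enzyme and 100% = wells lacking proteasome; stock transfer was 100 nL into about 20 µL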
Target sequence (Q9Y5K5 whole entry, looked up): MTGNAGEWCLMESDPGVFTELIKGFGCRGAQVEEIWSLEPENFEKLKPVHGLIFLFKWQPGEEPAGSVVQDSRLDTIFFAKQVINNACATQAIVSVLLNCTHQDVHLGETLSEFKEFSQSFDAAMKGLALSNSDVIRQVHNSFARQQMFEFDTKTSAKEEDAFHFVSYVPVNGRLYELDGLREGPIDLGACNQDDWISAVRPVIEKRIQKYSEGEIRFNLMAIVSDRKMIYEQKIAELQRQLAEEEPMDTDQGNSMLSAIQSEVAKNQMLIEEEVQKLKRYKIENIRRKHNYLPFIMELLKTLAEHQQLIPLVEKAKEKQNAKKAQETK
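System: Proteasome-associated human UCH37 deubiquitinase; Input: 0.15 nM proteasome in added enzyme buffer; Also added: Ub-AMC substrate from 1 µM stock; Incubation: 30 min compound-proteasome preincubation then 25 min substrate reaction, room temperature; Detection: fluorescence, ex 355 nm, em 460 nm; Read-out: % inhibition of Ub-AMC cleavage fluorescence; Benchmarks: no-proteasome and no-compound wells.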
RanGTP-Impb inh: inhibitors of RanGTP-importin-beta interaction, primary screen, biochemical, FRET, CFP-Ran, YFP-importin-beta, homogeneous. cell-free CFP-Ran/YFP-importin-beta FRET ratio. inhibition, % (no concentration beside the values). actives 1.1% (n = 300,000);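 active = most replicates above 15%; inconclusive = exactly half above 15%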;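 also: 0% = DMSO wells and 100% = Ran loaded with GDP instead of GTP; wells of about 40 µL received 100 nL stock; the first replicate is given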
B2AR ag: agonists of human beta-2 adrenergic receptor inducing internalization. response, % (concentration not given with the values). P07550. AID 504454. actives 0.43% (n = 340,000). Am2.2-beta2AR cells, FAP receptor internalization, flow cytometry; reference of the scale not given here;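 active = response above a set limit, near 3 SD of response in nonfluorescent compounds, cut at about 42% in these data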;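 also: stock transfer was 100 nL into about 11 µL; a reference agonist was the positive control; negative values mostly stem from fluorescent compounds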
Target sequence (P07550 whole entry, looked up): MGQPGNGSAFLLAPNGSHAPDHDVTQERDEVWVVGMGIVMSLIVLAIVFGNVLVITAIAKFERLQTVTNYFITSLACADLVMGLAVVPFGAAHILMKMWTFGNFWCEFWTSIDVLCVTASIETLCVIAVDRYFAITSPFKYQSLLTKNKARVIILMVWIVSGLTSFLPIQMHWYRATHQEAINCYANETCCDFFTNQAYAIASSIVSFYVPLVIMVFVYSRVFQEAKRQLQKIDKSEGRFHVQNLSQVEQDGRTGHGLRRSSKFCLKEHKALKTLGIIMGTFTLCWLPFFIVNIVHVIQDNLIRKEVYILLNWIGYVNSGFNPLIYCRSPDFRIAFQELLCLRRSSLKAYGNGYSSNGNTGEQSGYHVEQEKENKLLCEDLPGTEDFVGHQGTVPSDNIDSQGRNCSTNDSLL
Calb FLC: affects C. albicans growth with fluconazole. actives 0.57% (n = 300,000). growth inhibition, % (no concentration beside the values). C. albicans CaCi-2 (fluconazole-resistant clinical isolate) + fluconazole, Alamar Blue growth, 48 h. AID 1979;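 active = most replicates above 75%; inconclusive = exactly half above 75%; inactive = most below 75%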;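 also: all wells also contain fluconazole at 8 µg/ml as a sub-toxic cotreatment; 0% = median of DMSO wells and 100% = median of geldanamycin control wells; wells of about 8 µL received 7.5 nL stock; the first replicate is given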
Beta cell apopt: blocks beta cell apoptosis | AID 435005 | INS-1E cytokine-induced death, ATP luminescence, 48 h; percent of positive-control rescue, neutral wells zero | protection from apoptosis, % (no concentration beside the values) | actives 0.8% (n = 300,000);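 active = all replicates at 75% or more, or half of them and the mean; inconclusive = half reach 75% but not the mean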;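 also: 0% = cytokine-treated negative control wells and 100% = positive control rescue; higher means more ATP so stronger rescue from cytokine killing; wells of about 40 µL received 100 nL stock; the first replicate is given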
A1 inh: inhibitors of the anti-apoptotic protein A1, read as caspase activation | MEF A1-2A-BIM cells, Caspase-Glo 3/7 luminescence, 3 h; percent of clofoctol response, vehicle zero | AID 2462 | actives 0.066% (n = 330,000) | caspase activation, % (no concentration beside the values);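 active = over half of replicate activation scores above 10%, or exactly half above 10 with the replicate mean above 10; inconclusive = replicate mean below 10 yet half the replicates above 10; inactive = over half of replicates below 10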;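 also: wells of about 30 µL received 50 nL stock; many hits fall short of the cut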
T cruzi inh: T. cruzi replication inhibition | T. cruzi beta-gal in NIH3T3, luminescence, 90 h | inhibition, % (no concentration beside the values) | actives 1.4% (n = 300,000);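 active = mean inhibition across valid replicates above about 55%, limit read from the data; inconclusive = mean below that limit but half or more replicates reach it; inactive = mean below it, under half of replicates reach it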;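 also: signal also drops with host cell toxicity which is not excluded here; 0% = plate median of DMSO wells and 100% = zero luminescence signal; higher percent means less beta-gal luminescence so fewer parasites; stock transfer was 50 nL into about 50 µL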
* hit, by the source's call; u = inconclusive; x = no result given.

SMILES	LANA-H2A inh	UCH37 inh	RanGTP-Impb inh	B2AR ag	Calb FLC	Beta cell apopt	A1 inh	T cruzi inh
O=C(CSc1nncn1-c1ccccc1)Nc1ccccc1	0.5	2.6	7.3	-5	2	-5	0.6	6
O=S(=O)(c1ccccc1Cl)N1CCC(O)(c2ccc3c(c2)OCO3)CC1	3.0	0.0	3.2	0	-16	-2	0.9	8
Cc1nnc(SCCN2CCOCC2)n1C	x	0.5	0.1	-11	6	-2	0.3	-9
C=CCNC(=O)NC(=O)COC(=O)COc1ccc(Br)cc1F	1.0	0.3	3.3	6	23	-1	-0.5	0
COC(=O)c1ccc(NC(=S)Nc2ccccn2)cc1	-1.2	3.3	3.1	0	-13	-4	-0.3	-32
Cc1ccc(CN(Cc2ccco2)S(=O)(=O)c2ccc(S(=O)(=O)NCC3CCCO3)cc2)cc1 (stereo unspecified)	-0.2	0.1	2.3	16	2	4	0.3	0
Cc1ccc(Nc2nnc(SCC(=O)c3cc4ccccc4o3)s2)cc1C	x	5.5	3.5	-22	-6	-3	0.7	-1
CN1C(=O)c2ccc(NC(=S)NC(=O)C(C)(C)C)cc2C1=O	-0.7	0.8	-0.4	2	8	-3	0.2	-10
OCCC1CN(Cc2ccon2)CCN1Cc1ccc(F)c(F)c1 (stereo unspecified)	-4.4	5.5	4.4	-2	-21	-3	0.8	-5
O=C(C1CCC(=O)N(C2CCCC2)C1)N1CCN(c2ccc(Cl)cc2)CC1 (stereo unspecified)	6.8	2.5	2.6	-7	14	-3	0.4	13
CN(C(=O)COc1ccc(S(=O)(=O)N2CCOCC2)cc1[N+](=O)[O-])C1CCS(=O)(=O)C1 (stereo unspecified)	3.2	1.5	0.4	-3	7	-3	0.2	-7
O=C(O)c1ccc2c(c1Nc1ccccc1)C(=O)c1ccccc1C2=O	4.3	x	0.4	1	-3	-4	0.6	-24
CCC(=O)Nc1ccc(Nc2nc(C)c([N+](=O)[O-])c(Nc3ccc(NC(=O)CC)cc3)n2)cc1	2.7	6.4	0.0	2	-3	x	-0.4	3
Cc1cc(C)cc(OCC(=O)NNC(=O)CCN2C(=O)c3ccccc3C2=O)c1	-4.0	0.4	-3.3	-7	6	-3	0.8	-3
CCOc1ccc(NC(=O)CN(C)C(=O)c2ccccc2CCc2ccccc2)cc1OCC	0.4	2.8	3.2	6	9	6	-0.1	4
CCc1ccc(C2=NN(CCC(=O)NC(C)c3ccc4c(c3)OCCO4)C(=O)CC2)cc1 (stereo unspecified)	-1.1	1.8	-0.3	0	10	-5	-0.5	6
Cc1ccnc2nc(C(=O)OCCOc3ccccc3)nn12	2.5	7.7	5.3	2	1	-6	0.3	-10
Cc1onc(-c2ccccc2)c1C(=O)OCC(=O)Nc1ccc(Cl)cc1	2.4	1.3	x	-3	x	-2	2.2	x
O=C1C(NS(=O)(=O)c2cccs2)=C(N2CCOCC2)C(=O)c2ccccc21	-2.8	8.7	3.0	-1	5	10	0.6	-15
O=C(COC(=O)/C=C/c1cccc(Cl)c1)NCCC1=CCCCC1	-7.0	0.7	7.6	4	-8	-5	0.6	-8
O=C(NNC(=O)C1CC1)c1ccc(-c2ccccc2)cc1	-5.0	1.5	-0.5	2	6	-2	-1.1	-13
Cc1ccc(NC(=O)/C=C/c2ccc(Cl)cc2)nc1	0.4	-7.4	-1.7	-2	9	1	-1.0	-34
COc1ccc(-c2c(C)nn3c(NC4CCCC4)cc(C)nc23)cc1OC	-1.9	-12	3.9	4	-8	3	0.1	18
Cn1c(=O)n(CCC(=O)O)c2ccccc21	-0.6	0.0	-1.9	-5	6	-4	-0.3	5
Cc1cc(C(=O)N2CCCC(N3CCN(c4cccc(Cl)c4)CC3)C2)nn1C (stereo unspecified)	-0.2	3.0	4.6	11	-22	1	0.5	11
O=Cc1ccc(-n2nncc2-c2ccc([N+](=O)[O-])cc2)cc1	-9.3	5.4	-2.2	-2	-3	-7	-0.4	-5
COc1ccc2cnn(CCOc3ccccc3)c(=O)c2c1OC	5.0	-2.6	-1.5	0	4	0	0.5	5
COc1ccc(CC(=O)Nc2ccc(-c3noc(-c4cc(OC)c(OC)c(OC)c4)n3)cc2)cc1	4.6	-0.5	x	9	x	x	-0.4	x
O=C(O)CC1=C(Nc2ccccc2)C(=O)N(c2ccccc2)C1c1ccc(Cl)cc1 (stereo unspecified)	2.8	7.1	2.8	5	-9	-13	-0.2	-8
COCCn1nnnc1C(C(C)C)N1CCN(C(=O)c2ccco2)CC1 (stereo unspecified)	-0.4	0.9	3.2	10	13	-3	0.5	-8
COC(=O)C1C(=O)C(C(=O)c2ccccc2)C(=O)CC1(C)C (stereo unspecified)	1.8	6.8	5.4	-2	11	-9	0.2	-9
CC(NC(=O)C[n+]1cccc(Br)c1)c1ccccc1 (stereo unspecified)	-3.8	4.0	-1.8	-11	-6	-2	0.1	-11
O=C(COc1ccc2c(c1)oc(=O)c1ccccc12)NCC1CCC(C(=O)O)CC1 (stereo unspecified)	-3.9	-352	2.4	-2	1	-6	-0.3	0
COc1cc(/C=C(\C#N)c2nc3ccccc3[nH]2)cc(Br)c1OCc1ccc(F)cc1	-2.6	-18	5.2	-8	37	14	1.8	32
Cc1nc(CC(=O)c2ccc(O)cc2O)cs1	2.3	5.2	-1.2	0	3	3	-1.3	-2
Cn1cc(S(=O)(=O)N2CCNCC2)cc1C(N)=O	3.5	1.8	x	-5	x	-1	-0.8	x
C=CCN(c1ccccc1C(=O)NCC(=O)O)S(=O)(=O)c1ccccc1C	-1.6	2.4	-1.1	-2	-3	1	2.1	-17
COc1ccc2c(C(=O)CN(C)C3CCCCC3)c[nH]c2c1	2.3	2.9	-3.4	-3	2	-4	0.0	-6
CCc1[nH]nc(C(=O)N2CCCC(C(=O)c3cccc(C(F)(F)F)c3)C2)c1C (stereo unspecified)	3.8	5.5	-0.2	-6	2	-4	-0.5	-6
Cc1ccccc1CN1CCc2c(OCC(=O)N3CCCCC3)cccc2C1=O	-4.8	0.5	2.6	1	-3	-2	0.2	6
CC(=O)c1cccc(NC(=S)NC(=O)c2ccccc2C)c1	2.8	4.5	7.2	-3	21	4	-0.3	-1
NC(=O)C1(N2CCCCC2)CCN(C(=O)CCCn2c(=O)[nH]c3ccsc3c2=O)CC1	5.2	0.8	x	-11	x	1	1.0	x
O=S(=O)(Nc1ccc(-c2nc3cccnc3s2)cc1)c1ccc(Cl)s1	2.4	-181	u	7	-3	9	-2.8	-31
Cn1cccc1C(=O)OCC(=O)Nc1ccc2c(c1)OCCO2	-7.2	0.2	x	-2	x	-6	-6.5	x
COc1ccccc1CNS(=O)(=O)c1ccc2c(c1)NC(=O)C(C)S2 (stereo unspecified)	-3.1	4.3	-0.2	1	-9	1	-1.4	5
CC(C1CC1)N(C(=O)c1ccccc1[N+](=O)[O-])c1ccccc1 (stereo unspecified)	-1.5	1.6	-0.5	2	-3	-1	2.1	9
O=C(Nc1cc(Cl)cc(Cl)c1)c1cccc(OC(F)F)c1	0.3	-0.2	1.6	0	1	12	0.5	18
CCNC(=O)NC(=O)C(C)OC(=O)C1CCN(S(=O)(=O)c2ccccc2C(=O)OC)CC1 (stereo unspecified)	-1.4	1.1	0.8	0	6	-5	-0.2	-1
O=C(CN(Cc1ccccc1Cl)C(=O)c1ccc(CN2CCOCC2)o1)NCc1ccccc1	-4.0	0.4	3.0	-2	0	2	-0.4	7
Cc1cccc(C(=O)N2c3ccccc3C(=O)OC2c2ccc3c(c2)OCO3)c1 (stereo unspecified)	2.1	2.9	-0.1	3	-6	-1	-4.9	-12
Carrying on:
SMILES	LANA-H2A inh	UCH37 inh	RanGTP-Impb inh	B2AR ag	Calb FLC	Beta cell apopt	A1 inh	T cruzi inh
CCc1ccccc1NC(=O)COc1ccc2c(=O)c(Oc3cc(C)ccc3C)coc2c1	-2.7	x	1.4	0	5	-4	0.8	3
CC(C)C(NC(=O)c1c(F)cccc1F)C(=O)OCN1C(=O)c2ccccc2C1=O (stereo unspecified)	-0.4	-2.7	x	-13	x	2	-0.5	x
O=C(Nc1cccc2c1N(C(=O)c1ccco1)CCC2)c1ccco1	0.2	-1.8	7.0	3	10	0	-0.4	-2
Cc1ccc2nc(NCc3ccccc3)[nH]c2c1	0.3	1.2	0.3	23	-8	20	-0.1	-16
N#CC1=C(N)NC(SCC(=O)Nc2ccccc2)=C(C#N)C12CCCC2	0.0	38*	-1.4	0	2	-16	0.3	7
CCOc1ccccc1NC(=O)CCCNC(=O)c1ccc(Cl)cc1	3.0	4.3	1.0	-3	-2	-2	-0.4	3
C#CCOCCOCCOCCNc1nc(N2CCN(C(=O)CCCCCCCCCCNC(=O)[C@@H](CCSC)n3cc(CCO)nn3)CC2)nc(N2CCN(C(=O)CCCCCCCCCCNC(=O)[C@H](CO)n3cc(CCCCCN)nn3)CC2)n1	-6.8	x	x	19	x	10	-0.1	x
COc1ccc(/C=C(/NC(=O)c2ccco2)C(=O)N2CCOCC2)cc1	5.2	8.8	1.4	49*	-4	x	0.0	-3
CCN1CCN(P2(=O)C=C(c3ccccc3)OC(c3ccccc3)=C2)CC1	0.8	2.2	-2.8	-1	1	-1	-0.5	13
Cc1onc(-c2c(Cl)cccc2Cl)c1NC(=O)NNc1ccccn1	0.9	3.6	5.3	0	-10	-9	0.0	7
CCC1CCCCN1S(=O)(=O)c1ccccc1 (stereo unspecified)	0.3	0.7	2.6	11	-60	-4	-0.5	-7
O=C(c1ccc(-n2c(SCc3cc(F)ccc3F)nc3ccccc3c2=O)cc1)N1CCOCC1	-3.9	5.3	1.9	3	-1	13	-0.3	49
CCOc1ccccc1C1CC(=O)Nc2cc3c(cc21)OCO3 (stereo unspecified)	2.8	2.6	0.7	28	-30	33	0.8	13
CCCCC(CC)COC(=O)C(C#N)=C(c1ccccc1)c1ccccc1 (stereo unspecified)	15*	1.1	x	-5	x	11	0.1	x
CN(C)S(=O)(=O)Oc1ccc(C(=O)Nc2ccc([N+](=O)[O-])cc2)cc1	1.8	4.3	0.8	0	-8	1	-0.6	1
COCCNC(=O)CN(C(=O)c1ccc(N2CCCC2)nc1)c1ccccc1	-7.2	3.2	-2.7	-22	-16	3	0.1	x
CCOC(=O)c1cnc2cc(C)nn2c1C	3.9	1.3	-2.2	0	7	-9	0.2	-8
O=C(CCN1C(=O)/C(=C/c2ccco2)SC1=S)Nc1ccc(C(=O)O)c(O)c1	6.8	5.8	4.1	-6	-7	x	-1.6	-3
CCCC(=O)c1ccc(N2CCCC2)c(F)c1	-5.9	3.8	0.3	-6	-37	4	-1.0	4
CN(C)C(=O)c1ccc2c(c1)C1C3CCC(C3)C1C(c1ccccc1)N2 (stereo unspecified)	-3.7	5.4	2.1	33	37	2	1.0	-2
O=C(CN(c1cccc(C(F)(F)F)c1)S(=O)(=O)c1ccc(Cl)c([N+](=O)[O-])c1)NCc1ccc(F)cc1	0.4	6.9	-2.4	23	-2	1	0.4	14

Bioassay records deposited in PubChem by several laboratories.
